Screening data: PubChem BioAssay, National Center for Advancing Translational Sciences (NCATS)
Six1-Eya2 inh: inhibitors of human Six1/Eya2 interaction. activity change, % (concentration not given with the values). Q15475+O00167. 360,000 tested, 0.56% active. AlphaScreen GST-Six1/His-Eya2 binding, biochemical; active compounds read low; control for the full effect not named in the record; in the data active = activity change below about -65%; inconclusive = about -30% to -65%; inactive = above about -30%; also: % is scaled to controls: 0 for no effect and ±100 for the full control effect
Target sequence (O00167 whole entry, looked up): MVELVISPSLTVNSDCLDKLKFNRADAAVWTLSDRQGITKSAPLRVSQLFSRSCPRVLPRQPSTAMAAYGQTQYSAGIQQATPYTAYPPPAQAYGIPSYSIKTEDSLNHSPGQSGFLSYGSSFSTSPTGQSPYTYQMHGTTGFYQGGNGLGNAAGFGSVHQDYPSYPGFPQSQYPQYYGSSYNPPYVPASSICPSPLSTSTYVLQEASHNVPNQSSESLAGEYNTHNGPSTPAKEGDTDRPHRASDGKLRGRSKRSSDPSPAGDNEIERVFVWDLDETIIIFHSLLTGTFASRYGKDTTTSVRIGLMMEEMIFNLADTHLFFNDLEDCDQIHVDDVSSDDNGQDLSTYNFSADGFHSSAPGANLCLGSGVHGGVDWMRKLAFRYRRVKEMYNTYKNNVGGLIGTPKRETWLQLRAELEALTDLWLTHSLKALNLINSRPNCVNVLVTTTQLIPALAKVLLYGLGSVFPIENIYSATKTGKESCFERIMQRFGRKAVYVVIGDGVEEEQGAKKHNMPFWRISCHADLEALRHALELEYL
Target sequence (Q15475 whole entry, looked up): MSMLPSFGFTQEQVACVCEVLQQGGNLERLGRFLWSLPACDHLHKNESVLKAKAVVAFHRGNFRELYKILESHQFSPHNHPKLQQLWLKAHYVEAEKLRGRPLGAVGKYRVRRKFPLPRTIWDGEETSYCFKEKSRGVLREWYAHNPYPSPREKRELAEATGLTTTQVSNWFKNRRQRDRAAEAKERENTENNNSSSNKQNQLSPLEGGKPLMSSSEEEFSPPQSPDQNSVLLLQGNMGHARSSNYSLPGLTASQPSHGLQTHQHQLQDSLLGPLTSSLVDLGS
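Six1/Eya2 binding was read as AlphaScreen signal after compounds were pinned into GST-Six1 plus His-tagged Eya2 (5X stock 250/500 nM) in pH 8.0 Tris/NaCl/TCEP buffer, beads added, then incubated 1 h, 37 C, dark.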
CtBP-E1A inh: blocks the CtBP interaction with E1A. AlphaScreen GST-E1A/His-CtBP binding, 1536-well; active compounds read low; control for the full effect not named in the record. 340,000 tested, 0.49% active. activity change, % (test concentration not listed). AID 651724; in the data active means activity change below about -65%; inconclusive means about -30% to -65%; inactive means above about -30%; also: % is scaled to controls: 0 for no effect and ±100 for the full control effect
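Protein mix (5X: 125 nM each GST-E1A, His-CtBP) was incubated with pinned compound 2 h at 37 deg C in dark, in 50 mM Tris pH 8.0 buffer with 300 mM NaCl. Glutathione donor and nickel acceptor beads followed; AlphaScreen signal read after 1 h.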
D2 PAM: potentiates the human D2 dopamine receptor allosterically; P14416; 360,000 tested, 0.23% active; potentiation, % (no concentration beside the values); DiscoveRx D2 beta-arrestin cells, luminescence, 90 min; 100% = 57 uM dopamine signal; AID 624464; active = potentiation of 50% or more; inconclusive = 30% to 50%; inactive = 30% or less;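 also: compound concentration not given in the record; tested on top of an EC20 dose of dopamine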
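D2 cells co-treated with compound plus 50 nM dopamine (EC20) for 90 min at 37 deg C to detect potentiation. Beta-arrestin recruitment was read as enzyme-fragment luminescence after 1 h at ambient temperature. Full response was set by 57 uM dopamine.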
gsp agonist: gsp mutant agonism | 340,000 tested, 0.13% active | gsp mutant cells, cAMP HTRF, 30 min; control for the full effect not named in the record | AID 624287 | Potency, µM (titrated, usually from 76.9 µM), inactives show at the highest dose activation (cAMP increase), actives largely listed as activators; active = well fitted activation curve with a large enough effect; inconclusive = small, poorly fitted or top-dose-only effect, or another doubt; inactive = no such curve, though single readings can be large or run the other way; cell line not stated here;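 also: phosphodiesterase inhibitor Ro 20-1724 added with compounds to block cAMP breakdown; potency is read from the fitted curve at half-maximal effect; nearly all actives have a fitted effect of over 60% in size; about a fifth of the inactives were tested at one dose only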
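Cells in DMEM/10% FBS with G418 were pretreated with compounds in DMSO plus […] (300 uM stock) for 30 min at 37C. cAMP was measured by HTRF (cAMP-d2 plus anti-cAMP antibody-K) after 30 min at room temperature.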
D2 agonist: activates the human D2 dopamine receptor | P14416 | DiscoveRx PathHunter D2 beta-arrestin, luminescence, 90 min; 100% = 57 uM dopamine signal | activation, % (concentration not given with the values) | 360,000 tested, 0.084% active; in the data active = activation above about 40%; inconclusive = about 15% to 40%; inactive = below about 15%; also: compound concentration not given in the record; the text of the record calls up to 30% inactive
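Agonist mode: compounds alone added to overnight-plated D2 PathHunter cells for 90 min at 37 C, with 57 uM final dopamine (EC100) defining full response. Beta-arrestin recruitment detected by chemiluminescent reagent, read after 1 h at ambient temperature.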
gsp antagonist: antagonists of gsp mutant (McCune-Albright syndrome); gsp-mutant cells, cAMP HTRF, 30 min; control for the full effect not named in the record; 340,000 tested, 0.4% active; Potency, µM (doses to about 76.9 µM), without a hit: at the top dose activity change, negative = inhibition, most hits filed as inhibitors; active = falling curve of any shape with a large fitted effect; inconclusive = falling curve, mostly with a smaller effect; inactive = flat or rising curve; cell line not stated here;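 also: intracellular cAMP measured with PDE inhibitor Ro 20-1724 present during compound exposure; potency is read from the fitted curve at half-maximal effect; % is scaled to controls: 0 for no effect and ±100 for the full control effect; nearly all actives have a fitted effect of over 65% in size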
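Measurement of cellular cAMP by homogeneous time-resolved fluorescence following a 30 min compound exposure at 37C. The PDE inhibitor […] was present throughout; the assay buffer was DPBS with 0.05% BSA and 0.005% Tween 20.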
Numbers without * were called inactive; ? = inconclusive; . = not tested or not shown; [ ] = another dose, or the depositor's remark.

cpd | gsp antagonist | CtBP-E1A inh | Six1-Eya2 inh | D2 PAM | D2 agonist | gsp agonist | SMILES
1 | -3.1% | 4.7 | -7.9 | 0.8 | -4.8 | 19.1% | CCc1ccc(C(C)(O)C(CN2CCOCC2)c2ccccc2)cc1 (stereo not drawn)
2 | -1.4% | -0.5 | -22.8 | -12.4 | -6.0 | 28.7% | O=C1C(=Cc2ccco2)CCCC1=Cc1ccco1
3 | -2.0% | -1.2 | 8.6 | -3.1 | 0.6 | 1.4% | O=C(COC(=O)C1=COCCO1)NC1CCCCCCC1
4 | -5.8% | -1.5 | 4.0 | 1.8 | -6.8 | . | O=C1CCC(c2ccc(-n3ccnc3)cc2)=NN1
5 | -22.7% | . | -15.0 | -7.5 | 4.5 | ? | O=C(CCN1C(=O)/C(=C/c2ccc(Cl)cc2)SC1=S)NCCCn1ccnc1
6 | -21.2% | 0.0 | 0.9 | -0.5 | -3.2 | ? | COc1ccc(S(=O)(=O)N2CCC(C(=O)NCCc3ccccc3)CC2)cc1OC
7 | 3.7% | -2.1 | 4.8 | -7.9 | -2.5 | 8.7% | O=C(NC1CCCCCC1)c1ccc(CS(=O)(=O)Cc2ccc(F)cc2)o1
8 | 5.9% | -11.4 | -3.9 | -7.5 | -3.9 | 16.0%[15.4 µM] | CSCCC(NC(=O)COc1ccccc1)C(=O)NCC1COc2ccccc2O1 (stereo not drawn)
9 | . | -9.2 | -17.9 | -11.6 | -0.1 | -24.7% | CC(C)N(C(=O)Cn1cc(S(=O)(=O)CC(=O)NCCc2ccccc2)c2ccccc21)C(C)C
10 | 9.2% | 3.4 | -5.5 | -7.5 | 0.5 | -1.4%[15.4 µM] | O=C(NCC(=O)N1CCCCCC1)c1ccc(Cl)cc1
11 | -15.8% | -2.2 | 1.0 | -10.1 | -1.5 | 28.2%[15.4 µM] | Cc1nc(-c2ccc(F)cc2)c(CC(=O)N2CCN(S(=O)(=O)c3cccc(Cl)c3)CC2)s1
12 | ? | 40.9 | 17.4 | -3.5 | 0.5 | 10.7% | CC1=CC(=Nc2c(C)n(C)n(-c3ccccc3)c2=O)C=C(C)C1=O
13 | -13.5% | 5.5 | 4.0 | -11.3 | 1.4 | -8.0% | CCN(C(=O)COC(=O)c1ccccc1OCc1ccc(Cl)cc1)C1CCS(=O)(=O)C1 (stereo not drawn)
14 | 24.1% | 3.5 | 4.3 | -5.8 | -2.8 | 13.9% | COc1ccc(OCC(=O)NNC(=O)c2cccnc2)cc1
15 | -4.6% | -7.4 | 2.7 | 20.5 | 6.9 | ? | O=C(COC(=O)c1ncc(Cl)c(Cl)c1Cl)NCCc1ccccc1
16 | 16.3% | 2.9 | -4.2 | -6.8 | -13.6 | -16.8% | COC(=O)Cc1[nH]nc2c1C(C1C=CCCC1)C(C#N)=C(N)O2 (stereo not drawn)
17 | 3.7% | 1.6 | 3.7 | -9.2 | 0.7 | 0.8% | Cc1ccnc(NS(=O)(=O)c2ccc(NC(=O)C3CCCCC3)cc2)n1
18 | 2.2% | 1.2 | -0.5 | -3.2 | -2.1 | 23.0% | O=C(COC(=O)c1ccccc1Oc1ccccc1)NC1CCS(=O)(=O)C1 (stereo not drawn)
19 | -6.2% | 4.8 | 2.9 | -4.2 | -2.5 | -0.3% | Cc1cccc(NC(=O)Cc2noc3ccccc23)c1
20 | -17.9% | -4.6 | -4.2 | -0.9 | 7.8 | 11.8%[15.4 µM] | NS(=O)(=O)c1ccc(N/N=C2/CCCc3ccccc32)c([N+](=O)[O-])c1
21 | 6.3% | 0.0 | 3.3 | -5.2 | -4.3 | 24.8% | NS(=O)(=O)c1ccc(CCNC(=O)CSc2nc3ccsc3c(=O)n2CCCCCC(=O)O)cc1
22 | -11.1% | ? | -22.5 | -18.0 | 2.0 | -39.0%[inhibitor] | Cc1ccccc1C(=O)Nc1sc(C)c(C)c1C(=O)c1ccccc1
23 | . | 23.9 | -16.2 | 0.4 | -9.3 | ? | CN1OC[C@@H]2CN(C(=O)c3ccc(-c4ccccc4)cc3)[C@H](c3ccc(-c4cccc(F)c4)cc3)C[C@@H]21
24 | 2.4% | -5.5 | -4.8 | -3.1 | 0.6 | 0.1% | COc1ccc(NC(=O)C2CCN(S(=O)(=O)c3c(C)noc3/C=C/N(C)C)CC2)cc1
25 | ? | 3.0 | 3.4 | 6.9 | 2.1 | -19.1% | Cc1cccc(C(=O)Nc2sc(C)c(-c3ccccc3)c2C#N)c1
26 | 4.4% | 0.0 | -2.7 | -17.8 | -4.4 | -25.4% | O=C1CN(C(=O)CNCc2ccccc2)c2ccccc2N1
27 | 8.8% | 0.0 | 0.9 | -9.9 | 0.8 | 1.6% | CCN1CCN(c2cc(C)c3cc(NC(=S)N4CCCC4)ccc3n2)CC1
28 | -10.5% | 18.8 | 2.3 | -7.5 | -3.1 | -3.9% | CC12COC3(C(=O)Nc4ccc(Cl)cc4)CC1CCC32C (stereo not drawn)
29 | 4.1% | -8.5 | -3.9 | -5.1 | -1.0 | ? | CN(CC(=O)NCc1ccncc1)S(=O)(=O)c1ccc(Cl)cc1
30 | 12.0% | 4.7 | -4.1 | 3.5 | 1.0 | -30.3%[inhibitor] | CC(=O)Nc1ccc(NC(=O)CSc2ncc(C(=O)Nc3ccc(Cl)cc3)c(=O)n2C)cc1
31 | -20.5% | -0.3 | -13.7 | -18.6 | -1.6 | 13.2% | Cc1ccc(Cn2c(C(C)Nc3nc(-c4ccc(F)cc4)cs3)nc3cc(C(=O)NCCCO)ccc32)cc1 (stereo not drawn)
32 | 7.5% | -13.9 | 0.0 | 6.7 | -1.8 | 6.0% | COc1ccc(N(CC(=O)Nc2ccc3c(c2)OCO3)S(C)(=O)=O)c(OC)c1
33 | -9.6% | 15.3 | -0.4 | -5.6 | -1.1 | -34.5%[inhibitor] | CCCCOc1ccc(NC(=O)C2CC=CCC2C(=O)O)cc1 (stereo not drawn)
34 | -10.4% | 0.8 | -4.7 | -1.3 | 3.3 | -0.9% | COc1ccc(NC(=O)COC(=O)CCNC(=O)c2ccco2)cc1Cl
35 | 7.8% | -17.1 | 9.6 | -15.7 | -5.5 | 20.3% | CN(C)C1=NC[C@H](Cc2ccccc2)N1CCCC1CCCC1
36 | 14.9% | -9.7 | -15.1 | -13.5 | -5.7 | 11.0% | Cc1ccc(S(=O)(=O)c2cc3c(=O)n4ccccc4nc3n(Cc3ccco3)c2=N)cc1
37 | 1.0% | 7.7 | 5.7 | -4.1 | -3.3 | 11.7% | CC(C(=O)NC1CCCCC1)N1C(=O)C2C3C=CC(C3)C2C1=O (stereo not drawn)
38 | . | -2.2 | 0.2 | -13.2 | 0.6 | . | COc1ccc(Cl)cc1-c1cc(C(=O)NCc2cccc(C(F)(F)F)c2)[nH]n1
39 | -4.7% | 7.3 | 3.4 | -14.0 | -5.1 | ? | Cc1ccc(S(=O)(=O)NC(=O)N2CCCC2)cc1
40 | -14.4% | -0.3 | 3.7 | -7.3 | -2.3 | ? | O=C(CCCn1c(SCc2cccc(F)c2)nc2ccccc2c1=O)NCC1CCCO1 (stereo not drawn)
41 | -1.8% | 4.4 | 3.5 | -13.6 | -3.8 | 11.9%[15.4 µM] | CC1CCN(CCOc2ccc(Cl)c(Cl)c2)CC1
42 | 5.5% | 2.6 | 9.1 | -4.5 | -3.3 | 4.9% | O=C(CCn1cnnn1)Nc1ccc(Cl)cc1Cl
43 | -22.4% | -1.1 | 0.3 | -0.5 | -0.1 | 12.4% | Cc1sc(NC(=O)C2CCCCC2C(=O)O)c(C(N)=O)c1-c1ccc(C(C)C)cc1 (stereo not drawn)
44 | . | -23.7 | -10.6 | -1.7 | 8.0 | . | CCc1nc2ccc(C(=O)NCCc3ccccn3)cn2c1N(C)Cc1ccc(N(C)C)cc1
45 | -3.7% | -1.9 | -4.4 | -31.6 | -7.6 | 2.1%[15.4 µM] | O=C(CSc1nc(=O)n(CCCN2CCOCC2)c2c1CCCC2)Nc1cccc(Cl)c1

Some of the entries so far, with two lines to a compound:
Values in the order: gsp antagonist	CtBP-E1A inh	Six1-Eya2 inh	D2 PAM	D2 agonist	gsp agonist
32: COc1ccc(N(CC(=O)Nc2ccc3c(c2)OCO3)S(C)(=O)=O)c(OC)c1
→ 7.5%	-13.9	0.0	6.7	-1.8	6.0%
33: CCCCOc1ccc(NC(=O)C2CC=CCC2C(=O)O)cc1 (stereo not drawn)
→ -9.6%	15.3	-0.4	-5.6	-1.1	-34.5%[inhibitor]
34: COc1ccc(NC(=O)COC(=O)CCNC(=O)c2ccco2)cc1Cl
→ -10.4%	0.8	-4.7	-1.3	3.3	-0.9%
35: CN(C)C1=NC[C@H](Cc2ccccc2)N1CCCC1CCCC1
→ 7.8%	-17.1	9.6	-15.7	-5.5	20.3%
36: Cc1ccc(S(=O)(=O)c2cc3c(=O)n4ccccc4nc3n(Cc3ccco3)c2=N)cc1
→ 14.9%	-9.7	-15.1	-13.5	-5.7	11.0%
37: CC(C(=O)NC1CCCCC1)N1C(=O)C2C3C=CC(C3)C2C1=O (stereo not drawn)
→ 1.0%	7.7	5.7	-4.1	-3.3	11.7%
38: COc1ccc(Cl)cc1-c1cc(C(=O)NCc2cccc(C(F)(F)F)c2)[nH]n1
→ .	-2.2	0.2	-13.2	0.6	.
39: Cc1ccc(S(=O)(=O)NC(=O)N2CCCC2)cc1
→ -4.7%	7.3	3.4	-14.0	-5.1	?
40: O=C(CCCn1c(SCc2cccc(F)c2)nc2ccccc2c1=O)NCC1CCCO1 (stereo not drawn)
→ -14.4%	-0.3	3.7	-7.3	-2.3	?
41: CC1CCN(CCOc2ccc(Cl)c(Cl)c2)CC1
→ -1.8%	4.4	3.5	-13.6	-3.8	11.9%[15.4 µM]
42: O=C(CCn1cnnn1)Nc1ccc(Cl)cc1Cl
→ 5.5%	2.6	9.1	-4.5	-3.3	4.9%
43: Cc1sc(NC(=O)C2CCCCC2C(=O)O)c(C(N)=O)c1-c1ccc(C(C)C)cc1 (stereo not drawn)
→ -22.4%	-1.1	0.3	-0.5	-0.1	12.4%
44: CCc1nc2ccc(C(=O)NCCc3ccccn3)cn2c1N(C)Cc1ccc(N(C)C)cc1
→ .	-23.7	-10.6	-1.7	8.0	.

Next entries
cpd | gsp antagonist | CtBP-E1A inh | Six1-Eya2 inh | D2 PAM | D2 agonist | gsp agonist | SMILES
46 | 2.2% | 5.3 | 8.6 | -8.9 | -3.5 | 3.0% | COC(=O)[C@H](C)NC(=O)Nc1ccc(C)c(C)c1
47 | -5.9% | -4.7 | 6.2 | -3.7 | -0.7 | 30.8% | CC(=O)c1cc2c(cc1NC(=O)c1ccco1)OCCO2
48 | 7.8% | 3.8 | -10.2 | 0.7 | 2.3 | 15.7% | COC(=O)N/N=C\c1ccc(OC(=O)c2ccco2)cc1
49 | -1.7% | 9.0 | -4.3 | -23.0 | -0.8 | 18.1%[15.4 µM] | COc1ccc(OCC(=O)Nc2nccs2)cc1
50 | -29.7% | -8.3 | -14.8 | 1.1 | -1.9 | -0.2% | COc1cccc(C(=O)N/N=C/c2ccc(Oc3ccc([N+](=O)[O-])cn3)c(OC)c2)c1
